WNV protease inh: inhibitors of WNV NS2B-NS3 protease, primary screen, biochemical, fluorogenic substrate. Genome polyprotein (West Nile virus), P06935. fluorogenic substrate Ex360/Em465; hits give low values. z-score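 (tested at a level between 10 and 100 µM)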. 65,000 compounds, 0.18% hits. AID 577, 2007;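 active means z-score at -3 or under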;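 further: score is relative to mean and spread of the compound wells of a plate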
Target sequence (P06935 1371-1501 limits assumed): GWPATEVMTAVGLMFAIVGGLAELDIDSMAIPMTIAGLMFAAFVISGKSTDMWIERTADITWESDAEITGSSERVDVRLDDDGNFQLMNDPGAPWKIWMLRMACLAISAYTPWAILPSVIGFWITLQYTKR
Target sequence (P06935 1502-1679 limits assumed): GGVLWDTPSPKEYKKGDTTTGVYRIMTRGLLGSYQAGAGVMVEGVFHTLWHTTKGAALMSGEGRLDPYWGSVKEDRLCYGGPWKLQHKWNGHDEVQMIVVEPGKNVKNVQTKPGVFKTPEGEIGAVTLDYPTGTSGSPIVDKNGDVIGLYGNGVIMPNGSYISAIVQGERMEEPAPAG
Hsc70: Hsc70 inhibitors, probe displacement, primary screen, biochemical, fluorescence polarization (AID 568) | Hsc70 fluorescence polarization, probe displacement; higher % means a stronger effect; strong numbers were not always called active | displacement, % at 20 µM; hits with a dose series show IC50 in µM | Heat shock cognate 71 kDa protein (Homo sapiens) | 83,000 tested, under 10 active;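 active means displacement above 50% without optical interference and an IC50 on retest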;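 further: ATPase domain with a fluorescein-tagged ATP probe; 0% = vehicle and 100% = excess ADP; read after one hour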
MT1-MMP promoter: inhibitors of MT1-MMP promoter transcription, cell-based, luciferase reporter, luminescence (AID 618) | calls from a first round at 10 µM; hits with a dose series show EC50 in µM | 87,000 compounds, 0.62% hits | MT1-MMP promoter luciferase reporter cells, luminescence;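 active means over half of the reporter light lost at 10 µM or EC50 under 50 µM; inactive means the rest and hits that failed the dose series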;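 further: actives suppress MT1-MMP promoter-driven transcription so potencies describe inhibitors; HT1080 fibrosarcoma cells; overnight exposure; toxic or luciferase-blocking compounds were not removed from the actives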
* hit, by the source's call; i = inactive; . = not tested or not shown.

Compound | WNV protease inh | Hsc70 | MT1-MMP promoter
COc1ccc(N(C)S(=O)(=O)c2cccc(C(=O)NC3=NCCS3)c2)cc1 | -2.4 | 4.3% | i
COc1cc(NC(=O)c2ccco2)c(OC)cc1NC(=O)CCC(=O)Nc1cccc(C)c1C | -0.47 | -2.6% | i
CCOC(=O)Cn1c(C)cc(=O)c2ccccc21 | . | -0.3% | i
O=C(O)c1cn(-c2ccccc2)nc1-c1ccc(Cl)cc1 | . | -6.5% | i
S=C1SCN(Cc2ccccn2)CN1Cc1ccco1 | -0.43 | 7.8% | i
Cc1cc(C)cc(C(=O)O/N=C(\N)c2ccc(Br)cc2)c1 | . | 0.7% | i
O=C(Cn1c(=O)n(CC2CCCO2)c(=O)c2ccccc21)N1CCN(c2ccccc2)CC1 (stereo unspecified) | -0.73 | 6.7% | i
O=C(COc1ccccc1Cl)NC(=O)NC1CCCC1 | -0.2 | 3.8% | i
COc1ccc(-c2nc3scc(-c4ccccc4)n3n2)cc1 | 1.3 | -0.9% | i
O=C1CC(c2ccccc2)CN1C(=O)c1ccccc1 (stereo unspecified) | -0.57 | -1.2% | i
CCCCC1CC1C(=O)Nc1ccc(OC)c(OC)c1 (stereo unspecified) | -1.7 | 4.6% | i
CC(C)C(=O)N(Cc1ccccc1)c1ccccn1 | . | 0.6% | i
COc1ccc(C(C)NC(=O)c2ccccc2)cc1 (stereo unspecified) | . | -2.4% | i
O=C(CSc1nnc(CCc2nc3ccccc3[nH]2)n1-c1ccccc1)NCc1ccco1 | -1.4 | -1.4% | i
FC(F)Oc1cccc2cccnc12 | 0.28 | 0.6% | i
O=C(O)C1CC=CCC1C(=O)c1ccccc1 (stereo unspecified) | . | 4.3% | i
CC(C)CCNC(=O)NC(=O)CSc1nnc(-c2ccccc2F)n1N | 0.74 | -6.1% | i
CCOC(=O)Cc1csc(NC(=O)CSc2nnc(-c3ccc(F)cc3)o2)n1 | 1 | -7.1% | i
COc1ccc(OCCSc2nnnn2C2CCCCC2)cc1 | -1.4 | 2.9% | i
O=C(CN1C(=O)CSc2ccccc21)N1CCc2ccccc21 | 0.58 | 0.5% | i
Cn1cccc1Cc1nnc(SCC(=O)Nc2ccc3c(c2)OCCO3)n1-c1ccc(F)cc1 | -1.1 | -1.9% | i
Cc1cc(NC(=O)CCCSc2nc(-c3ccco3)cc(C(F)(F)F)n2)no1 | -1.2 | -8.4% | i
CC1(C)Cc2ccccc2-c2nnc(-c3ccco3)n21 | . | 0.7% | i
CCOC(=O)C(CC)Sc1nnc2c3cc(C)ccc3n(C)c2n1 (stereo unspecified) | . | 5.1% | i
O=c1c2c3c(sc2nc2n1CCCCC2)CCCCC3 | -0.4 | 1.5% | i
COc1ccc(/C=N\NS(=O)(=O)c2ccc(Br)cc2)cc1COc1ccccc1[N+](=O)[O-] | . | -2.4% | i
Cc1ccc(S(=O)(=O)Nc2nc3ccc(S(=O)(=O)N4CCCC4)cc3s2)cc1 | 0.43 | 1.8% | i
Cn1ncc(C#N)c1NC(=O)C1CC(c2ccc(Cl)cc2)=NO1 (stereo unspecified) | . | 2.7% | i
CC(C(=O)NC1CCCC1)N(C(=O)c1snc(C(N)=O)c1N)c1ccc2c(c1)OCCO2 (stereo unspecified) | -1.6 | -0.8% | i
CCc1nnc(NC(=O)CC(=O)Nc2ccccc2C(=O)O)s1 | 0.12 | -7.4% | i
Cc1cc(C(=O)NC(C)c2ccncc2)cs1 (stereo unspecified) | -0.25 | -7.2% | i
O=[n+]1c2c(n([O-])c3c1CCC3)CCCC2 | -0.21 | 0.0% | i
CCOC(=O)c1c(-c2ccccc2)oc2ccc(O)c(CN3CCOCC3)c12 | 0.38 | -5.4% | i
Cc1ccc(CNc2nc(N)c([N+](=O)[O-])c(Nc3cccc(F)c3)n2)cc1 | . | -3.1% | i
O=C(CSc1nnc(CNc2ccc(F)cc2)o1)N1CCCc2ccccc21 | -0.43 | -6.2% | i
CN(C)S(=O)(=O)NCc1ccc2c(c1)OCO2 | -0.35 | -5.1% | i
Cc1csc(SCC(=O)NC(=O)NCc2ccccc2)n1 | 0.12 | -2.0% | i
O=[N+]([O-])c1ccc(Sc2n[nH]c(-c3ccc(Cl)cc3Cl)n2)nc1 | . | -1.1% | i
O=C1c2ccccc2C(=O)N1CCC1=CCCCC1 | . | 4.5% | i
CC1CC(C)CN(C(=O)CSCC(=O)Nc2nc(-c3cccs3)cs2)C1 (stereo unspecified) | -0.06 | 4.4% | i
CN(C)C(=O)N1CCC(C(=O)NCc2ccccc2Cl)CC1 | -0.44 | -0.3% | i
CC(=O)c1cc2c(cc1NC(=O)CCNC(=O)c1ccccc1Cl)OCO2 | . | 0.7% | i
COc1ccc(C2CC(c3cccc(OC)c3OC)n3nnnc3N2)cc1 (stereo unspecified) | 1.5 | -3.5% | i
O=C(CN1C2=NCCN2c2ccccc21)c1ccc(Br)cc1 | -0.47 | -3.2% | i
NC(=O)C1CCN(C(=O)CSc2nc3ccccc3o2)CC1 | . | -2.4% | i
CN(C)S(=O)(=O)N1CCN(S(=O)(=O)c2ccc(F)cc2)CC1 | 0.8 | -2.2% | i
c1ccc(-c2nn3c(Cn4nnc5ccccc54)nnc3s2)nc1 | -0.0097 | 10% | i
O=c1[nH]c2ccc(S(=O)(=O)N3CCC(Cc4ccccc4)CC3)cc2o1 | . | -5.1% | i
COc1ccc(NC(=O)c2oc3ccccc3c2NC(=O)c2ccc(OC)c(OC)c2)c(OC)c1 | -0.24 | 0.8% | i
CC(C)=CCC(C)(C)C1OCCN1C(=O)c1ccccc1 (stereo unspecified) | -0.49 | 9.0% | i
C=CCN1C(=O)C(Cc2ccccc2)S/C1=N/N=C/c1cccs1 (stereo unspecified) | . | -0.3% | i
CCOc1cccc(C2c3c(oc4cc(C)c(C)cc4c3=O)C(=O)N2CCCN(C)C)c1 (stereo unspecified) | 0.35 | 2.3% | i
CC(=O)Nc1ccc(-c2nc(C)c(C(C)=O)n2O)cc1 | -0.15 | -1.0% | i
CCOC(=O)c1c(CN2CCOCC2)n(-c2ccccc2)c2cc(Br)c(O)c(CN(C)C)c12 | . | 6.0% | i
CC(C)NC1=C(Cl)C(=O)c2ccccc2C1=O | . | 1.1% | i
NC(=O)CSc1ncc(-c2ccccc2)[nH]1 | 1 | 2.6% | i
CCCNC(=O)C1=C(C)C(=O)OC12CCC(C)CC2 (stereo unspecified) | 1.3 | 3.5% | i
O=C(COc1ccc(F)c(Cl)c1)c1ccc[nH]1 | -0.75 | -7.6% | i
CC(C)C1N=C2c3ccccc3N=C(SCC(=O)c3ccc(O)c(O)c3)N2C1=O (stereo unspecified) | -1.1 | -2.8% | i
COc1ccc(Cc2nnc(SCC(=O)N3CCc4ccccc4C3)o2)cc1 | -0.41 | 6.9% | i

Additional results follow:
Compound | WNV protease inh | Hsc70 | MT1-MMP promoter
Cc1[nH]nc2nc3c(c(OC(=O)c4ccccc4)c12)c(=O)n(C)c(=O)n3C | -0.61 | -3.4% | i
CCCC(CCC)C(=O)Nc1c[nH]c(=O)[nH]c1=O | . | 4.3% | i
O=c1c2ccccc2nc2n1C1(CCCCC1)Cc1ccccc1-2 | . | 5.7% | i
O=C(O)C1C2CCC(O2)C1C(=O)NCCC1=CCCCC1 (stereo unspecified) | 0.54 | 4.4% | i
O=C(CSc1nnc(-c2ccco2)o1)c1ccc(F)c(F)c1 | 0.65 | 0.5% | i
O=C(CN1CCN(c2ccccc2F)CC1)c1c[nH]c2ccc(F)cc12 | . | 1.6% | i
O=C(CSc1nnnn1-c1ccccc1)N1CCc2ccccc21 | -0.52 | -3.1% | i
N#Cc1cc2cc3c(cc2nc1SCC(=O)OC1CCCCC1)OCO3 | -0.78 | -5.2% | i
CCOC(=O)C1CCN(C(=O)c2c(-c3c(F)cccc3Cl)noc2C)CC1 | 1.3 | 3.8% | i
O=C1CC(C(=O)NC2CCCCC2)C(c2ccccc2)O1 (stereo unspecified) | -0.0064 | -4.9% | i
COc1ccc(C2=NOC(CN3C(=O)c4ccccc4S3(=O)=O)C2)cc1 (stereo unspecified) | 0.27 | 0.2% | i
CC1(c2ccncc2)Nc2ccccc2-c2nc3ccccc3n21 (stereo unspecified) | -0.61 | 4.7% | i
O=C(O)COc1nsnc1N1CCOCC1 | 0.09 | -6.2% | i
O=C(COc1ccccc1)N1CCN(S(=O)(=O)Cc2ccccc2)CC1 | -0.43 | 5.8% | i
CCOC(=O)N1CC=C2C(C#N)=C(N)C(C#N)(C#N)[C@H](c3ccc(OC(C)C)c(OCC)c3)[C@H]2C1 | 1.5 | -11% | i
O=S(=O)(NCc1ccc2c(c1)OCO2)c1cnc[nH]1 | 2.5 | 3.2% | i
Cc1ccc(-c2nn(CC(=O)NCC3CCCO3)c(=O)c3ccccc23)cc1 (stereo unspecified) | -0.6 | 1.4% | i
c1ccc(OCCSc2nc3ccccc3o2)cc1 | -0.88 | -1.7% | i
C=C(C)CSc1nnc([C@H](CCSC)NC(=O)OC(C)(C)C)o1 | 1.1 | 6.4% | i
CCn1c(=NC(=O)CSC(C)=O)sc2cc(OC)ccc21 | -0.28 | 3.5% | i

A different layout for six compounds above:
Second line of a record: WNV protease inh | Hsc70 | MT1-MMP promoter
O=C(CN1CCN(c2ccccc2F)CC1)c1c[nH]c2ccc(F)cc12
→ . | 1.6% | i
O=S(=O)(NCc1ccc2c(c1)OCO2)c1cnc[nH]1
→ 2.5 | 3.2% | i
CC1(c2ccncc2)Nc2ccccc2-c2nc3ccccc3n21 (stereo unspecified)
→ -0.61 | 4.7% | i
CCOC(=O)C1CCN(C(=O)c2c(-c3c(F)cccc3Cl)noc2C)CC1
→ 1.3 | 3.8% | i
Cc1[nH]nc2nc3c(c(OC(=O)c4ccccc4)c12)c(=O)n(C)c(=O)n3C
→ -0.61 | -3.4% | i
C=C(C)CSc1nnc([C@H](CCSC)NC(=O)OC(C)(C)C)o1
→ 1.1 | 6.4% | i

(continued)
Compound | WNV protease inh | Hsc70 | MT1-MMP promoter
CSc1nc2oc3c(c2c2nncn12)CC(C)(C)SC3 | -0.31 | 2.2% | i
Cc1cc(N2CCN(c3ccccc3)CC2)nc(-c2ccccc2O)n1 | . | 3.4% | i
CC(C)Cn1c2nc3ccccc3nc2c2c(=O)n(CCN3CCOCC3)cnc21 | -0.71 | 24% | i
OC12CCCCC1C(c1ccc3c(c1)OCO3)N(Cc1ccccc1F)CC2 (stereo unspecified) | -0.18 | 0.8% | i
C=CCn1c(SCC(=C)C)nc2c1c(=O)[nH]c(=O)n2C | -0.32 | -0.4% | i
CCOC(=O)c1nn(-c2ccccc2C)c2nc(CC(C)C)c(C#N)c(=O)n12 | . | -0.2% | i
COc1ccccc1N(O)C1CC(=O)N(c2ccc(F)cc2)C1=O (stereo unspecified) | -0.36 | 0.6% | i
N#Cc1c(SCc2ccccc2)nc(N2CCOCC2)c2c1CCCC2 | -0.12 | -1.4% | i
COc1cc2c(cc1OC)C(c1ccc(-c3ccc(Cl)c(Cl)c3)o1)=NCC2 | . | 1.6% | i
O=C(CSc1nc2ccccc2c(=O)n1-c1ccccc1)N1CCN(CCO)CC1 | -0.07 | 7.7% | i
CC(C)(C)NC(=O)C1N(c2cccnc2)C(=O)C2C(C(=O)Nc3ccccc3F)C3(C)C=CC21O3 (stereo unspecified) | -0.56 | 0.8% | i
CN1C(=O)/C(=C2\SC(=S)N(C(CCC(=O)O)C(=O)O)C2=O)c2ccccc21 (stereo unspecified) | -0.07 | 4.7% | i
CCN(CC)CCNc1nc(-c2ccccc2)c2c(c1C#N)CC(C)(C)OC2 | . | 2.2% | i
CSCC[C@H](NC(=O)OC(C)(C)C)c1nnc(SCC(=O)Nc2c(C)cccc2C)o1 | 0.95 | 1.1% | i
Cc1c(C(=O)O)nn(-c2ccccc2)c(=O)c1C#N | -0.19 | 0.7% | i
CCOc1ccc(Cl)cc1S(=O)(=O)n1cnc2cc(C)c(C)cc21 | . | -2.8% | i
CCN1C(=O)N(C)C(N(O)C(=O)NC)C1(C)C (stereo unspecified) | -1 | 3.6% | i
Cc1cc(N2CCN(c3ccccc3)CC2)n2nnnc2n1 | -0.43 | 4.7% | i
CCc1ccc(NC(=O)C2CCN(S(C)(=O)=O)CC2)cc1 | 0.59 | -0.2% | i
Cc1cc(C(=O)O)ccc1N/C=C1\CCCC(C)C1=O (stereo unspecified) | . | 7.2% | i
O=C(C1CCCN(S(=O)(=O)c2cccs2)C1)N1CCN(C2CCCCC2)CC1 (stereo unspecified) | -0.78 | 0.6% | i
C=C(C)c1cccc(C(C)(C)NC(=O)NCCCn2ccnc2)c1 | -0.04 | 4.1% | i
CC(=O)c1cccc(NC(=O)N2CCN(S(C)(=O)=O)CC2)c1 | -0.68 | -1.8% | i
CCCc1cc(=O)n2[nH]c(-c3ccccc3)cc2n1 | 0.57 | -2.8% | i
Brc1ccc2ncnc(NCc3ccco3)c2c1 | 1.3 | -0.1% | i

From PubChem

These rows are one share of the data. The share of hits here may be higher or lower than overall.
